TDP1 cell noCPT – qHTS for Inhibitors of human tyrosyl-DNA phosphodiesterase 1 (TDP1): qHTS in cells in absence of CPT. DT40 Tdp1-/- hTDP1 cells, no CPT, ATP luminescence, 48 h. Potency, µM (doses to about 46.2 µM), for the others: at the highest dose activity change, negative = growth inhibition, most hits filed as inhibitors. 420,000 compounds, 15% hits; also: nearly all actives have a fitted effect of over 55% in size
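Chicken DT40 Tdp1-/- cells stably complemented with human TDP1 were seeded at 400 cells/well with DMSO in place of 20 nM camptothecin. After compound pinning, cells grew at least 48 hr at 37 °C; viability read by CellTiter-Glo luminescence.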
TDP1 inh – TDP1 (human) enzyme inhibition; Potency, µM (titrated, usually from 130 µM), for the others: at the top dose activity change, negative = inhibition, usual class: inhibitors; recombinant TDP1, AlphaScreen DNA substrate cleavage; Q9NUW8; 350,000 compounds, 0.28% hits; also: nearly all actives have a fitted effect of over 40% in size
Target sequence (Q9NUW8 whole entry, looked up): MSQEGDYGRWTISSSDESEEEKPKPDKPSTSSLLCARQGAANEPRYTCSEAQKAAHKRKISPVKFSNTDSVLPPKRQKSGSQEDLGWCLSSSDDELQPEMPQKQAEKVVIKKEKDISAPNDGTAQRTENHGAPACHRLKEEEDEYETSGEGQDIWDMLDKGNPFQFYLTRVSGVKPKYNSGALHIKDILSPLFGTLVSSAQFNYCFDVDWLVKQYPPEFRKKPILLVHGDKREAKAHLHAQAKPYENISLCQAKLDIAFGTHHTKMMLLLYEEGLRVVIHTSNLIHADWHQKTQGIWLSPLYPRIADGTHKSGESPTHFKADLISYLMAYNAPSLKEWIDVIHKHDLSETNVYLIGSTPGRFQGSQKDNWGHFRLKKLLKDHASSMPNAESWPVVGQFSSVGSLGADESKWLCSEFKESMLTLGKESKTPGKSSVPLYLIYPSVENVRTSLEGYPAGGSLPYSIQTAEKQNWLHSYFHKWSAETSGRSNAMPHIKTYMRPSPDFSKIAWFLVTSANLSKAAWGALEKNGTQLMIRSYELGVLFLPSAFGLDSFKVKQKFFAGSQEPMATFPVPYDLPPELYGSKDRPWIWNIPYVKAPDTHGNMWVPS
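Compounds were preincubated with Tdp1 (1 nM final) for 15 min at room temperature before substrate (15 nM final) started a 5 min reaction; beads (10 ug/ml final) were then added for 10 min before AlphaScreen detection.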
* hit, by the source's call; u = inconclusive; x = no result given; & = joins results of further samples; [ ] = remark or other dose. Calls follow the shape of the dose curve; as a rule, active = well fitted curve in the direction sought with a large enough effect; inconclusive = small, poorly fitted or top-dose-only effect, or another doubt; inactive = no such curve, though single readings can be large; an effect the other way counts as inactive or inconclusive. % is scaled to controls: 0 for no effect and ±100 for the full control effect; potency is read from the fitted curve at half-maximal effect.

Structure | TDP1 cell noCPT | TDP1 inh
CCOc1cc2c(cc1OCC)C(C(=O)O)C(c1cc(OC)c(OC)c(OC)c1)N(C)C2=O (stereo unspecified) | -12% | 0%
O=C(COC(=O)C1COc2ccccc2O1)NC(=O)Nc1ccc2c(c1)OCCO2 (stereo unspecified) | -5% | -1%
O=C(Nc1ccon1)c1csc2c1CCCC2 | -14% | 2%
CN(C)C(/C=C/Nc1ccccc1F)=C(C#N)C#N | -6% | 1%
CCOc1ccccc1OCCCCN1CCCC1 | -9% | 2%
C=CCNC(=S)NC1CC(C)(C)NC(C)(C)C1 | -10% | 3%
COC(=O)c1ccc(S(=O)(=O)N(Cc2ccccc2)Cc2ccccc2)n1C | u | -1%
C=CCOc1cccc(C2C(C(=O)c3ccco3)=C(O)C(=O)N2CCN2CCOCC2)c1 (stereo unspecified) | -24% | 7%
CN(C)c1ccc(NC(=O)Nc2cccc3ccccc23)cc1 | 11% | 6%
CCOC(=O)C(CC)/C(C)=N/NC(=O)c1ccc([N+](=O)[O-])cc1 (stereo unspecified) | -1% | 4%
O=C(COC(=O)/C=C/c1ccc([N+](=O)[O-])cc1)NCc1ccc2c(c1)OCO2 | 7% | 6%
O=C(NCCC(=O)N1CCC2(CC1)NCCc1[nH]cnc12)c1cccc(C(F)(F)F)c1 | 0% | 4%
CCC(C(=O)NC1CCN(C)CC1)c1ccccc1 (stereo unspecified) | 6% | 1%[56.1 µM]
C/C(=N/NS(C)(=O)=O)c1ccc2ccccc2c1 | -1% | 5%
N#Cc1ccc(Cl)cc1NC(=O)COC(=O)c1ccc(S(=O)(=O)N2CCCC2)cc1 | 2% | 8%
CCOC(=O)N1CCN(S(=O)(=O)c2ccc(F)c(C(=O)Nc3cccc(C)c3C)c2)CC1 | u | 0%
Cc1nn(C)cc1C(=O)Nc1ccccc1Br | 2% | 0%
CCOc1ccccc1Nc1ncnc2c1cnn2-c1ccccc1 | u | 0%
CCOc1ccccc1CN1CCC(O)CC1 | -12% | -10%
CCC(NC(=O)C1CCC1)c1ccccc1 (stereo unspecified) | -18% | -2%
O=c1c(O)c(-c2cccs2)oc2ccc(Cl)cc12 | u | 8%
O=C(Cn1nc(-c2ccc(Cl)cc2)ccc1=O)NCC1COCCO1 (stereo unspecified) | -12% | x
CCc1ccc(N(CC(=O)N2CCCCCC2)S(C)(=O)=O)cc1 | -14% | 4%
O=C(NC1CCCCC1)C(c1ccccc1)N1CCC2(CC1)OCCO2 (stereo unspecified) | u | 9%
C=CCn1cccc(C(=O)Nc2cc(OC)cc(OC)c2)c1=O | u | 0%
NC[C@@]12CCCC1C1CCC2C1 (stereo partly specified) | x | 6%
Cn1cc(C(=O)N2CCN(c3ccccn3)CC2)c(=O)c2cc(S(=O)(=O)N3CCOCC3)ccc21 | 3% | 3%
COc1ccccc1-n1c(SCC(N)=O)nc2c(c1=O)SCC2 | -19% | 5%
O=C(CN1CCN(c2ccccn2)CC1)Nc1ccc(OCc2ccccc2)cc1 | u | 0%
COC1Cc2ccccc2N(C(=O)N2CCN(CCO)CC2)c2ccccc21 (stereo unspecified) | -36% | 8%

Reprinted from the part before: 4 entries, followed by the next part.
Structure | TDP1 cell noCPT | TDP1 inh
Cn1cc(C(=O)N2CCN(c3ccccn3)CC2)c(=O)c2cc(S(=O)(=O)N3CCOCC3)ccc21 | 3% | 3%
COc1ccccc1-n1c(SCC(N)=O)nc2c(c1=O)SCC2 | -19% | 5%
O=C(CN1CCN(c2ccccn2)CC1)Nc1ccc(OCc2ccccc2)cc1 | u | 0%
COC1Cc2ccccc2N(C(=O)N2CCN(CCO)CC2)c2ccccc21 (stereo unspecified) | -36% | 8%
O=c1c2ccccc2nc2n1CCCCN2 | -16% | 3%
CC(=O)c1ccc(NC(=O)C2CCCN(S(=O)(=O)c3ccc(-n4cnnn4)cc3)C2)cc1 (stereo unspecified) | -18% | -15%
COc1ccc2cc(C(=O)N3CCOCC3)sc(=O)c2c1OC | u | 0%
Cc1ccc2nnc(Cl)n2n1 | u | 0%
Cc1ccc(/C(O)=C2\C(=O)C(=O)N(CCc3c[nH]c4ccccc34)C2c2cccnc2)cc1 (stereo unspecified) | 3% | 3%
CN(C)C(=O)COC(=O)c1cccc(CN2C(=O)c3ccccc3C2=O)c1 | -24% | 7%
COc1cccc(C(=O)N2CCn3c2nc2ccccc23)c1 | -9% | 10%
CCN(CC)CC(=O)NC12CC3CC(CC(C3)C1)C2 | -7% | -1%
COc1ccc([N+](=O)[O-])cc1NC1C2CC3CC(C2)CC1C3 (stereo unspecified) | -19% | -2%
Cc1ccc2nc(-c3ccc(S(=O)(=O)N4CCCCC4)cc3)cn2c1 | -30% | -6%
CCNC(=O)c1c(O)c2cccc3c2n(c1=O)CC3 | 23µM* | 5%
O=C(NCc1ccco1)c1c(O)c2cccc3c2n(c1=O)CCC3 | -18% | 4%
C=C(C)CNC(=O)CCc1nnc(C2(c3ccc(Cl)cc3)CCC2)o1 | u | 9%
COc1ccccc1NC(=O)CC(NCCN(C)C)C(=O)O (stereo unspecified) | 16% | 5%
COC(C[C@@H]1O[C@@H]1[C@@H](O)[C@@H](C)OCc1ccccc1)OC | -12% | 6%
CCCc1cc(C(=O)Nc2ccccc2C(=O)OC)no1 | -26% | 2%
CCCCS(=O)(=O)Nc1ccc(N2CCOCC2)c(S(=O)(=O)N2CCOCC2)c1 | -5% | 3%
O=C(C1CCCN(Cc2ccccc2Br)C1)N1CCCCC1 (stereo unspecified) | -27% | -5%
COC(=O)Nc1cc([N+](=O)[O-])ccc1OC | 0% | 5%
c1ccc(CNc2nnnn2-c2ccccc2)cc1 | -27% | 4%
O=C(O)CC1SC(=Nc2cccc(C(F)(F)F)c2)NC1=O (stereo unspecified) | -18% | 1%
Cn1ccsc1=NC(=O)c1cccc(C#N)c1 | -22% | 2%
CCOC(=O)COc1ccc(S(=O)(=O)NCc2ccco2)cc1 | -15% | -2%
CC(NC(=O)CCc1nnc(C2CCCCC2)o1)c1ccc(F)cc1 (stereo unspecified) | 4% | x
CCOC(=O)CC1CCCCN1C(=O)CCCn1nnnc1CN1CCOCC1 (stereo unspecified) | 7% | 4%
CS(=O)(=O)N(CC(=O)NCc1ccccc1)c1ccc(Cl)cc1 | 4% | x
COc1ccc(C(=O)NC(=O)Nc2ncccc2C)cc1 | -14% | -2%
COc1cc(C(=O)N2CCC(n3cnc4cc(F)ccc43)CC2)cc(OC)c1OC | -8% | 2%
Cc1nc(Cl)sc1C(=O)Nc1cc(F)cc(F)c1 | u | 3%
CC(=O)OCCOc1nc(N(C)C)nc(N(C)C)n1 | 0% | 2%

Compounds above with two or more sulfur atoms (2):
Structure | TDP1 cell noCPT | TDP1 inh
COc1ccccc1-n1c(SCC(N)=O)nc2c(c1=O)SCC2 | -19% | 5%
CCCCS(=O)(=O)Nc1ccc(N2CCOCC2)c(S(=O)(=O)N2CCOCC2)c1 | -5% | 3%

(list continues)
Structure | TDP1 cell noCPT | TDP1 inh
COc1cccc(C(=O)NC2CCN(CC(=O)NCc3ccccc3F)CC2)c1 | 7% | 0%[0.0935 µM]
COc1ccc(O)c(C(=O)c2cnc3onc(C(C)C)c3c2)c1 | -26% | 4%
Cc1cc(N2CCN(C)CC2)nc2ccc(NC(=S)N3CCOCC3)cc12 | -14% | 5%
O=C(O)c1n[nH]c2c1CCCCC2 | -1% | 2%
Cc1ccc(S(=O)(=O)NNC(=O)c2cnn(-c3ccc(Cl)cc3)c2C(F)(F)F)cc1 | -20% | 1%
O=C(CSc1ccc([N+](=O)[O-])cn1)Nc1ccc2[nH]c(=O)[nH]c2c1 | -12% | 0%
O=S(=O)(O)c1nc2ccccc2n1CCOc1ccccc1 | -4% | 1%
Cc1ccc(NC2=CC(=O)CC(c3ccco3)C2)c(N)c1 (stereo unspecified) | -26% | 4%
O=C(NCCNC(=O)c1ccccc1)c1ccccc1 | 1% | 1%
Cc1ccc(NC2=NCC(=O)N2c2ccc3c(c2)OCCO3)c(C)c1 | -19% | -5%
O=S(=O)(NCCc1ccncc1)c1ccc(Br)cc1 | -10% | 8%
CCOC(=O)C(C)n1cnc2c(nnn2-c2ccc(OC)cc2)c1=O (stereo unspecified) | -23% | 1%
CC(=O)Nc1ccc(NC(=O)C2CC(=O)N(c3ccccc3Cl)C2)cc1 (stereo unspecified) | -17% | 0%
Cc1cc(C)n(-c2ccc(C(=O)N3CC(C)OC(C)C3)cc2)n1 (stereo unspecified) | 4% | -3%
Cc1[nH]nc2c1C(c1ccsc1)C1=C(CC(C)(C)CC1=O)N2 (stereo unspecified) | -18% | -1%
CC(=O)Nc1nnc(SCC(=O)NC(C)(C)C)s1 | -8% | 5%
CCN(CC)C(=O)Cn1cc(S(=O)(=O)Cc2cccc([N+](=O)[O-])c2)c2ccccc21 | u | 3%
O=C(Nc1ccc2oc(-c3ccc(F)cc3)nc2c1)c1ccccc1F | u | 3%
COc1ccc(C2C(C(=O)C(C)(C)C)=C(O)C(=O)N2Cc2ccccc2)cc1 (stereo unspecified) | 0% | 4%
COc1cccc(-n2nnc3c(=O)n(Cc4ccc(Cl)cc4)cnc32)c1 | -3% | -5%
Cc1ccc(S(C)(=O)=NC(=O)NC(=O)c2c(F)cccc2Cl)cc1 (stereo unspecified) | -19% | 3%
Cc1nc2ccccc2c(=O)n1NC(=O)c1cncc(Br)c1 | 4% | 4%
COc1cc(/C=N/N2C(=O)c3ccccc3C2=O)ccc1O | 2% | 0%
COc1ccc(-c2nc(CS(=O)(=O)CC(=O)NCCc3ccccc3)c(C)o2)cc1 | 9% | -11%
CCOC(=O)c1sc(NC(=O)CSc2nnc(C)s2)c(C(=O)OCC)c1C | u | -1%
CCc1ccc(-n2c(=O)c3ccccc3n3c(=S)[nH]nc23)cc1 | -21% | x
Cc1ccccc1N1CC(C(=O)N2CC(C)CC(C)C2)CC1=O (stereo unspecified) | -6% | -7%
O=C(NCc1ccncc1)C(=O)NCC1OCCN1S(=O)(=O)c1ccc(F)cc1 (stereo unspecified) | 8% | 2%
C[C@H](C(=O)CC(=O)OC(C)(C)C)[C@H](O)c1ccccc1 | -1% | 5%
CCc1nonc1NC(=O)c1oc2ccc(Br)cc2c1C | 19%&1% | 1%&-2%

Part of the list above in order of number of heavy atoms, smallest number first:
Structure | TDP1 cell noCPT | TDP1 inh
CCc1nonc1NC(=O)c1oc2ccc(Br)cc2c1C | 19%&1% | 1%&-2%
Cc1nc2ccccc2c(=O)n1NC(=O)c1cncc(Br)c1 | 4% | 4%
Cc1ccccc1N1CC(C(=O)N2CC(C)CC(C)C2)CC1=O (stereo unspecified) | -6% | -7%

The list goes on:
Structure | TDP1 cell noCPT | TDP1 inh
COc1cc(OC)c(S(=O)(=O)Nc2ccccc2N2CCCCC2)cc1NC(C)=O | -3% | 3%
COC(=O)c1ccccc1NC(=O)CSc1nnnn1-c1ccc(C)cc1C | u | -5%
COc1ccc(N2CCN(CCCNC(=O)C3CCCN(S(=O)(=O)c4cnc[nH]4)C3)CC2)cc1 (stereo unspecified) | 11% | 7%
CCc1cccc(OCC(=O)Nc2c[nH]c(=O)[nH]c2=O)c1 | -9% | -2%
COc1ccc(-c2noc(CCCc3ccccc3)n2)cc1OC | -2% | -11%
Cn1nccc1C(=O)OCC(=O)Nc1ccccc1 | -5% | 2%
COc1nc(OC)nc(N2CCC(C(=O)Nc3cccc4c3CCCC4)CC2)n1 | -18% | -1%
Cn1c(SCc2cccc(F)c2)nnc1-c1ccccn1 | -18% | 0%
O=C(Cn1cc(C(=O)c2ccco2)c2ccccc21)NC1CC1 | -1% | 9%
Nc1nc(Nc2cccc(F)c2)nc(NCCO)c1[N+](=O)[O-] | -7% | 1%
COc1ccc(N(CC(=O)NC2CCCCC2)C(=O)CNC(=O)c2ccco2)cc1OC | -2% | -2%
O=C(CN1CCCN(Cc2ccc(F)cc2Cl)C1=O)NC1CCCCCCC1 | u | 0%
O=C(NN=C1CCCC1)c1ccc([N+](=O)[O-])cc1 | -15% | 1%
COc1ccc(C(CCO)NC(=O)c2cccs2)cc1OC (stereo unspecified) | 7% | 3%
Cc1ccc(Cl)cc1N1CCN(C(=O)c2ccc(NC3=NC4CS(=O)(=O)CC4S3)cc2)CC1 (stereo unspecified) | 1% | 6%
COc1ccccc1-n1c([S-])c(C(=O)Nc2ccccc2C(F)(F)F)[n+]2ccc(C(=O)NCCO)cc12 | u | 5%
COC(=O)c1ccc(C2/C(=C(/O)c3ccc4c(c3)CC(C)O4)C(=O)C(=O)N2Cc2cccnc2)cc1 (stereo unspecified) | 18% | 5%
CC(CN1CCOCC1)(NS(=O)(=O)c1ccccc1)c1ccccc1 (stereo unspecified) | -18% | 8%
CN(C)CCOC(=O)c1ccc(COc2ccccc2Br)o1 | 8% | x
Cc1ccc(OCC(=O)N(Cc2cccc(F)c2)C2CCS(=O)(=O)C2)cc1 (stereo unspecified) | -1% | 3%
CC(=O)Nc1ccc(NC(=O)c2sc3nc4c(c(-c5ccc(C)cc5)c3c2N)CCC4)cc1 | -10% | 7%
Cc1c(NC(=O)CN2CCCC(C)C2)ccc2nsnc12 (stereo unspecified) | -1% | 5%

Not all compounds are listed; most or all hits stand in other tables.
